# High-throughput results (PubChem)
# Rango complex inh – qHTS Assay for Inhibitors of Rango (Ran-regulated importin-beta cargo) - Importin beta complex formation | Importin subunit beta-1 (Homo sapiens), Q14974 | Rango CFP/YFP FRET sensor + importin beta, 45 min | Potency, µM (top dose mostly 92.2 µM), for inactives: top-dose inhibition of complex formation | actives 0.031% (n = 340,000) | AID 540263, 2011; active = rising FRET ratio curve, often small or poorly fitted; inconclusive = mostly compound fluorescence or quenching in the first reads; inactive = flat curves in all reads;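 note: potency is the fitted concentration of half-maximal effect; 0% = DMSO wells and 100% = buffer wells lacking importin beta; nearly all actives have a fitted effect of over 15% in size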
# Target sequence (Q14974 whole entry, looked up): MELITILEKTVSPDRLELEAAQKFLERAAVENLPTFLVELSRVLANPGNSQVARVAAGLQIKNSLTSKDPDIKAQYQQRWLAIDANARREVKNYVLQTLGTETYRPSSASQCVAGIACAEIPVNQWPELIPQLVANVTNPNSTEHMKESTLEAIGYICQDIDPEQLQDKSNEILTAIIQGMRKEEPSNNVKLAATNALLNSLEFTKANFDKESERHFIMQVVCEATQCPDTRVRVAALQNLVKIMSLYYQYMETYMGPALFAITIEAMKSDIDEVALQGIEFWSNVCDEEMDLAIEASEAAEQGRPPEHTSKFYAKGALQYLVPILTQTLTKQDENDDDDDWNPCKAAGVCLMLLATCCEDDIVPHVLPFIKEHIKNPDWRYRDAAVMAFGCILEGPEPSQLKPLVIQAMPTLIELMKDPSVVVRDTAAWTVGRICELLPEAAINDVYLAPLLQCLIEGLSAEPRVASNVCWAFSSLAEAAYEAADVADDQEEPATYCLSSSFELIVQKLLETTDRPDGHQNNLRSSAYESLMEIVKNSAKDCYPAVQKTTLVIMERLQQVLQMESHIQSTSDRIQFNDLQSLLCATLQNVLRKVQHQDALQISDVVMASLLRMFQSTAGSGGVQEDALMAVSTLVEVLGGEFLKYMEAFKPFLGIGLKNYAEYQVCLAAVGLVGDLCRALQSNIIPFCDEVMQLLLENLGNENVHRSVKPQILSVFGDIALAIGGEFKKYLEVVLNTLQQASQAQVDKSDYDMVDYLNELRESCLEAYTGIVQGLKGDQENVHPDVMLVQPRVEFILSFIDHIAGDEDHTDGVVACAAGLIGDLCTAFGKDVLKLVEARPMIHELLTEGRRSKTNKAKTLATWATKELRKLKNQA
#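 Inhibition scored from the CFP 486 nm/YFP 530 nm FRET ratio 45 min after adding 0.125 microM importin beta to 50 nM Rango biosensor preincubated 5 min with compound (room temperature, PBS with DTT, Tween-20, BSA). No-importin wells as positive control.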
# Rango dissoc inh – qHTS Assay for Inhibitors of RanGTP induced Rango (Ran-regulated importin-beta cargo) - Importin beta complex dissociation; Biochemical FRET Rango-importin beta, RanGTP-induced dissociation; Potency, µM (series often up to 46.1 µM), inactives show at the top dose activity change, negative = inhibition; actives 0.071% (n = 340,000); active means falling FRET ratio curve, often poorly fitted, with flat reads before Ran was added; inconclusive means other falling curves, or compound fluorescence or quenching; inactive means flat or rising ratio curve;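 note: potency is the fitted concentration of half-maximal effect; % of control where 0% means no effect; nearly all actives have a fitted effect of over 45% in size; -100% = wells without RanGTP and RCC1; the record marks most hits as doubtful in a second field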
#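 Rango/importin beta premix (0.1/0.25 uM final), PBS + 1 mM DTT + 0.02% Tween-20 + 0.1% BSA; cpd 5 min RT; FRET pre-read; + RanGTP-RCC1 (0.6 uM Ran, 2 mM GTP, 0.2 uM RCC1); 45 min RT; FRET post-read, ex 430, em 486/530 nm.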
# miR-21 FLuc – qHTS Assay for Modulators of miRNAs and/orActivators of miR-21 | HeLa miR-21 FLuc reporter, luciferase, 48 h | Potency, µM (titrated, usually from 38.3 µM), for the others: at the highest dose reporter change, positive = more light | 340,000 tested, under 10 active; active = well fitted rising curve with a large enough effect; inconclusive = small, poorly fitted or top-dose-only effect; inactive = no such curve, though single readings can be large or run the other way;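 note: % of control where 0% means no effect; miR-21 action dims this reporter so a rising signal means less miR-21 action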
#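 HeLa cells stably expressing CMV-driven firefly luciferase with a downstream miR-21 binding sequence, endogenously expressing miR-21, were treated with titrations (up to about 40uM final) for 48 hours at 37 degree Celsius. Luciferase luminescence was read after lysis.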
# GLA inh pH 4.5 – qHTS Assay for Inhibitors of Human alpha-Galactosidase at pH 4.5. Alpha-galactosidase A (Homo sapiens), P06280. purified enzyme, 4-MU-alpha-Gal fluorescence, pH 4.5. activity change, negative = inhibition, % at 105 µM. 230,000 tested, under 10 active; inconclusive = small, poorly fitted or top-dose-only inhibition, or a rising curve; inactive = flat fitted curve, though single readings scatter; no compound was filed as active;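 note: 0% = full activity with enzyme and -100% = basal without enzyme; dose as in the result columns while the protocol names 77 µM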
# The depositor's hits bear a star; ? = inconclusive; . = no result given; & = joins results of further samples. An excerpt (hit frequency here may not be typical).
SMILES,Rango complex inh,Rango dissoc inh,miR-21 FLuc,GLA inh pH 4.5
CC1=NN(c2ccc(Cl)cc2)C(=O)C1C(c1cccc(O)c1)c1c(C)[nH]n(-c2ccc(Cl)cc2)c1=O (configuration not stated),2.9%,1.8%,7.3%,-7.9
COc1ccc(NC(=O)CN2C(=O)NC(C)(C3CC3)C2=O)cc1S(=O)(=O)N1CCOCC1 (configuration not stated),-0.7%,24.0%,.,.
O=C(CCn1c(=O)oc2ccccc21)NCCCN1CCN(c2ccc(F)cc2)CC1,2.6%,10.8%,-4.8%,-3.0
CCn1c(SCc2nc3ccccc3[nH]2)nnc1-c1cccs1,-1.4%,-19.7%,-11.8%,4.7
COc1ccc(CN2C(=O)C(Cc3ccccc3)Nc3ncnc(N4CCN(c5ccccc5)CC4)c32)cc1 (configuration not stated),?,15.0%,.,.
C[C@H](NC(=O)OC(C)(C)C)C(=O)N/N=C/c1cccc2nccnc12,-0.5%,-5.0%,0.2%,-11.8
Cc1nc(CSc2n[nH]c(=O)n2-c2ccccc2)cs1,0.8%,-8.8%,1.5%,0.4
COc1ccccc1-c1ccc(SCc2cccc(C)c2)nn1,0.7%,9.0%,4.9%,-12.0
CCC(=O)Nc1sc(Cc2ccc3c(c2)OCO3)c(C)c1C(N)=O,-0.8%,10.4%,7.0%,-3.7
CCOc1ccc2c(c1)c(=O)c(S(=O)(=O)c1ccc(CC)cc1)cn2C,-1.3%,10.4%,-1.0%,.
Cc1ccc(S(=O)(=O)NCCSc2ccccc2)cc1[N+](=O)[O-],-0.1%,-6.3%,-11.2%,-11.3
NNC(=O)CNC(c1ccccc1)c1cc(Cl)ccc1NC(=O)c1ccccc1 (configuration not stated),2.8%,-4.5%,5.5%,.
Cc1ccccc1N/C(SCc1ccc(Cl)cc1)=C(/C#N)C(N)=O,-1.2%,0.3%,1.4%,-8.4
O=C1c2ccccc2NC(c2ccc(Br)s2)N1O (configuration not stated),1.5%,-3.4%,.,.
Cc1ccc(/C=C(\NC(=O)c2ccccc2)C(=O)NCCc2ccccn2)o1,?,-7.4%,-16.2%,23.4
COc1ccc(NC(=O)CC2CCCCC2)cc1OC,2.8%,20.2%,-32.4%,-3.6
COCCNc1nnc(SCC(=O)N2CCN(S(=O)(=O)c3ccccc3)CC2)s1,-1.2%,0.2%,-1.5%,2.1
CC(=O)Nc1ccc2ccccc2c1,-1.8%,8.8%,-33.1%,2.8
CCOc1cc(N2CCOCC2)c(OCC)cc1NC(C)C(=O)N1CCC(C)CC1 (configuration not stated),-3.1%,5.0%,-3.0%,-2.5
COc1ccc(-c2noc(-c3ccc(Cl)cc3[N+](=O)[O-])n2)cc1OC,-0.7%,6.1%,-22.1%,-4.5

# Entries of single compounds, looked up by structure. Screens in order: Rango complex inh | Rango dissoc inh | miR-21 FLuc | GLA inh pH 4.5
# Results for CC(=O)Nc1ccc2ccccc2c1 : -1.8% | 8.8% | -33.1% | 2.8
# Results for COc1ccc(-c2noc(-c3ccc(Cl)cc3[N+](=O)[O-])n2)cc1OC : -0.7% | 6.1% | -22.1% | -4.5

# (more compounds)
SMILES,Rango complex inh,Rango dissoc inh,miR-21 FLuc,GLA inh pH 4.5
COc1ccccc1OCCNC(=O)c1cccc(S(=O)(=O)N2CC(C)OC(C)C2)c1 (configuration not stated),2.1%,1.1%,0.8%,.
Cc1ccc(S(=O)(=O)N2CCN(CC(=O)NC3CCCc4ccccc43)CC2)cc1C (configuration not stated),-3.1%&-1.8%,-2.3%&-12.5%,13.8%,-5.1
COc1ccc(-c2cccc(-c3cc(=O)oc4cc(OC)c(OC)c(OC)c34)c2)cc1,0.7%,10.1%,.,-18.6
Cc1ccc(/C=C/C(=O)NN2CCN(C)CC2)cc1,-0.4%,4.5%,-6.4%,.
Cc1c(C(=O)N(Cc2ccncc2)CC2CCCO2)oc2c(F)cccc12 (configuration not stated),1.0%,-4.0%,-4.1%,.
CC(=O)N(CCC(c1ccco1)C(C)C)Cc1ccc(Cl)cc1 (configuration not stated),-0.8%,1.9%,-1.3%,-2.2
Cc1cc(C)cc(N2CC(c3nc4ccccc4n3C)CC2=O)c1 (configuration not stated),-1.4%,-8.2%,-7.1%,12.1
COC(=O)C1=C(C)N(CCCC(=O)O)C(=O)NC1c1ccc(Cl)cc1 (configuration not stated),0.7%,7.0%,.,.
Nc1c(C(=O)Nc2ccc(Cl)cc2)sc2nc(N3CCOCC3)c3c(c12)CCCC3,?,?,-6.5%,.
CCCCN(CC)CCCNC(=S)Nc1ccc2nc(N3CCN(CC)CC3)cc(C)c2c1,0.0%,0.0%,-16.3%,1.2
CC1(C)CC(=O)C=C(NCCN2CCN(C(=S)Nc3ccccc3)CC2)C1,-2.4%,-12.4%,-2.6%,4.5
O=C(Nc1cc(C(F)(F)F)ccc1N1CCOCC1)c1cccc(F)c1,0.0%,-11.6%,-1.8%,-3.9
COCCn1c(SCc2cccnc2)nnc1-c1ccco1,0.5%,-0.9%,0.7%,-4.7
Cc1ccc(CCNC(=O)C2CCN(S(=O)(=O)c3ccc4c(c3)NC(=O)CO4)CC2)cc1,3.4%,-7.3%,7.6%,.
CC(C)CNC(=O)C(=O)NCc1ccccn1,-1.9%,4.6%,-5.2%,9.2
CC(=O)Nc1ccc(S(=O)(=O)NCCC(=O)OCC(=O)c2ccc(F)c(F)c2)cc1,0.5%,6.0%,0.8%,.
CCOc1ccc(C(=O)NCc2cccnc2)cc1[N+](=O)[O-],-4.0%,-10.1%,-9.3%,4.1
CCCCc1nc(Cl)c(C#N)c2c1CSC(C)(C)C2,1.8%,-10.0%,-7.8%,2.9
COc1cc2c(cc1OC)C(c1cccs1)N(C(=O)c1ccncc1)CC2 (configuration not stated),2.8%,-26.0%,18.3%,-1.0
COC(C[C@@H](O)C[C@H](O)[C@@H](C)OCc1ccccc1)OC,-4.2%,19.1%,-0.9%,1.5

# Random excerpt: three entries already listed, in no set order.
SMILES,Rango complex inh,Rango dissoc inh,miR-21 FLuc,GLA inh pH 4.5
COc1ccc(NC(=O)CC2CCCCC2)cc1OC,2.8%,20.2%,-32.4%,-3.6
COC(C[C@@H](O)C[C@H](O)[C@@H](C)OCc1ccccc1)OC,-4.2%,19.1%,-0.9%,1.5
COc1cc2c(cc1OC)C(c1cccs1)N(C(=O)c1ccncc1)CC2 (configuration not stated),2.8%,-26.0%,18.3%,-1.0

# Additional entries follow:
SMILES,Rango complex inh,Rango dissoc inh,miR-21 FLuc,GLA inh pH 4.5
CCCOC(=O)c1ccc(S(N)(=O)=O)o1,2.4%,3.8%,-10.7%,1.6
O=C1CC(c2ccccc2)Cc2nc(NC3CC3)ncc21 (configuration not stated),0.6%,-13.4%,1.4%,5.1
Cc1ccc(NS(=O)(=O)c2cccc(C(=O)N3CCCCCCC3)c2)cc1,2.1%,2.3%,.,.
CN(C)CCN(C(=O)c1ccc2c(c1)CCCC2)c1nc2c(F)cccc2s1,3.4%,-10.2%,-30.7%,.
COc1ccc(Cn2c(-c3ccc(OC)cc3)nc3ccccc32)cc1,2.1%,-12.3%,-2.0%,-1.5
CC1CCN(C(=O)Cn2cc(C#N)c3ccccc32)CC1,-0.3%,-7.6%,-9.5%,-0.4
Cc1cc(=O)oc2cc(OCC3CC(c4ccc(Cl)cc4)=NO3)ccc12 (configuration not stated),-0.2%,2.1%,-8.5%,8.5
O=C(CSc1nnc(COc2cccc3cccnc23)o1)c1ccc(F)cc1,-1.6%,6.0%,6.2%,-3.8
O=C(NC(Cc1ccccc1)c1ccc2c(c1)OCCCO2)c1ccccc1 (configuration not stated),6.5%,5.0%,-10.2%,-5.4
COc1ccc(N2CCN(S(=O)(=O)CCNC(=O)/C=C/c3ccc4c(c3)OCO4)CC2)cc1,8.6%,-24.9%,.,.
CCn1cc(C2=NC(C)(C)CO2)c2ccccc21,-0.3%,-11.8%,-7.4%,-0.8
Cc1ccc(SCc2ccc(C(=O)Nc3cc([N+](=O)[O-])ccc3C)cc2)cc1,-0.1%,0.1%,-11.5%,5.7
Cc1cccc(-n2c(-c3ccoc3C)n[nH]c2=S)c1,-4.0%,?,-4.2%,-0.9
OCC[C@H]1C[C@H](O)[C@@H](O)[C@@]2(CCCCO2)O1,0.9%,23.5%,-3.2%,6.9
COC(=O)C1=C(C)OC(N)=C(C#N)C1c1cc(C)sc1C (configuration not stated),0.5%,0.6%,3.1%,3.8
Cc1ccc2[nH]c(CCN(C)C)c(CC#N)c2c1,0.7%,-17.6%,-2.1%,3.5
COc1ccccc1S(=O)(=O)Cc1ccc(C(=O)NC(C)c2ccc3c(c2)OCCO3)o1 (configuration not stated),0.9%,-20.3%,10.1%,5.0
CC1=C(C(=O)O)N2C(=O)C(NC(=O)c3ccccc3Cl)C2SC1 (configuration not stated),3.9%,0.1%,-2.6%,.
C=CCNc1nc2ccccc2nc1NS(=O)(=O)c1cccs1,-3.9%,2.4%,0.5%,5.5
CCNc1nc(NCC)n2c(SCC(=O)NCC3CCCCC3)nnc2n1,1.5%,-22.9%,-9.5%,0.5
Cc1ccc(NC(=O)c2oc3ccc(S(=O)(=O)N4CCC5(CC4)OCCO5)cc3c2C)cc1C,-1.4%,16.6%,23.5%&1.5%,0.3
COc1cc(C(=O)Oc2ccccc2OC(=O)c2cc(OC)c(OC)c(OC)c2)cc(OC)c1OC,-0.6%,-0.5%,.,.
Cc1ccc(NC(=O)COC(=O)COc2cccc3c2OC(C)(C)C3)c(C)c1,0.2%,0.7%,.,.
CCC(=O)Nc1ccc(-c2nc3ccccc3c(=O)o2)cc1,-3.1%,6.9%,25.2%,3.8
COc1ccc(Cl)cc1NC(=O)CN(C)C(=O)CCSc1ccc(C)cc1,-0.8%,1.3%,.,.
CC(=O)Nc1cccc(C(=O)OC(C)C(=O)NCc2ccc3c(c2)OCO3)c1 (configuration not stated),3.7%,8.7%,.,.
[2H]C(CCOS(N)(=O)=O)c1ccc(C(C)(C)C)cc1 (configuration not stated),-0.6%,6.8%,12.0%,.
Fc1ccc(Cl)cc1/C=N/n1cnnc1SCc1ccccc1,5.8%,6.6%,-5.2%,7.0
CCOc1ccc(C(=O)COC(=O)c2cc([N+](=O)[O-])ccc2N2CCOCC2)cc1,-4.6%,8.7%,.,.
O=C1CCC([N+](=O)[O-])C(c2ccc(Cl)cc2Cl)N1 (configuration not stated),0.7%,2.3%,0.5%,4.1
N#Cc1c(-c2ccc([N+](=O)[O-])cc2)nc2n(c1=O)CCS2,0.5%,-5.3%,-0.8%,.
CC(C)(C)NC(=O)NC(=O)COC(=O)c1cccc(S(=O)(=O)N2CCCCC2)c1,-2.4%,21.2%,-4.3%,-0.6
CCn1c(SCC(=O)Nc2ccc3c(c2)OCO3)nnc1-c1cnccn1,9.4%,0.9%,-10.7%,0.0
COc1ccc(CN(CC(=O)NCc2ccc3c(c2)OCO3)C(=O)c2csnn2)cc1,1.6%,6.6%,-0.1%,.
CC1=C(/C=C/C(C)=C/C=C/C(C)=C\C(=O)O)C(C)(C)CCC1,-0.4%,11.0%,.,-9.6&0.9&2.9
C#CC1(O)CC(C)N(C)C(C)C1 (configuration not stated),0.5%,2.6%,-3.0%,4.2
Cc1cccc(C)c1NC(=O)NN=C1CCCCC1,1.6%,25.2%,-2.2%,-3.4
Cn1cccc1CNC(=O)Nc1ccc(Cl)c(Cl)c1,0.6%,-7.4%,-24.7%,-5.9
O/N=C/c1ccc(OCc2ccccc2F)c(Cl)c1,-0.4%,-0.1%,-63.9%,0.8
CCCn1nc(C(=O)Nc2nnc(C3CC3)s2)c2ccccc2c1=O,3.2%,-27.2%,.,.
CCn1ncc(Cl)c1C(=O)NC(=S)Nc1c(C)cc(C)cc1[N+](=O)[O-],-1.8%,-11.1%,-8.0%,0.8
COc1ccc(C(=O)NNC(=S)NC(=O)c2ccccc2)cc1,3.2%,0.9%,12.2%,.
O=C(NCC(=O)N1CCN(C(=O)c2ccccc2)CC1)c1ccccc1,-5.1%,-0.3%,.,.
c1cc2c(cc1Cn1cnnn1)OCO2,3.8%,-0.9%,-2.4%,2.3
